Proteasome disasm – blocks ATP-dependent breakdown of the yeast 26S proteasome | inhibition of disassembly, % (no concentration beside the values) | hit rate 0.2% among 24,000 | anti-FLAG beads, GFP-proteasome disassembly, flow cytometry;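 active = above 40%; inconclusive = likely self-fluorescent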;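 also: plate controls were ATP control with full disassembly for no effect and ATP-gamma-S intact proteasomes for full effect; higher percent means more bead fluorescence retained so stronger block of disassembly; stock transfer was 100 nL into about 10 µL; wells with too few beads may also be inconclusive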
VCAM-1 rise – boosters of cytokine-driven VCAM-1 levels – cell-based, plate reader, pooled HUVEC, TNFa stimulus (AID 455); HUVEC TNFa-induced VCAM-1 immunofluorescence, plate reader; numbers were filed only for top-ranked candidate wells; augmentation, % at 5 µM; hit rate 0.2% among 10,000;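 active = a compound raising TNF-alpha-driven VCAM-1 surface staining, with its hit status upheld on visual or statistical review; inactive = the rest, including hits rejected on review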;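 also: 0% = TNFa with vehicle and 100% = strongest image-checked hit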
Active calls of the source: *; i = inactive; ? = inconclusive; . = no result given. A portion of the library, so the mix of outcomes need not match the whole.

molecule | Proteasome disasm | VCAM-1 rise
CC#CCCCC(=O)Nc1cccc(C(=O)O)c1 | -2.0 | .
CCn1c(=O)cc(OCC(=O)Nc2ccc(Cl)cn2)c2ccccc21 | -1.1 | .
COc1ccccc1C(=O)n1nc(-c2ccccc2)nc1N | 0.6 | i
COc1ccc(NC(=O)c2ccc(-n3nc(C)c[n+]3[O-])cc2)cc1 | 1.2 | .
CCOC(=O)c1cc(CC)sc1NC(=O)CCC(=O)O | 0.7 | i
CSc1cccc(NC(=O)C2CCCN2S(=O)(=O)c2ccc3c(c2)CCC(=O)N3)c1 (stereo unspecified) | 0.2 | i
COC(=O)C1(C#N)C(c2ccccc2)C1(C(=O)OC)C(=O)OC (stereo unspecified) | ? | i
Cc1nnc(NC(=O)CSc2nnc(-c3ccc(S(=O)(=O)N4CCCC4)cc3)n2C)s1 | -0.8 | i
COc1ccc(CC(=O)NC(CC(=O)O)c2ccc(OC)cc2)cc1 (stereo unspecified) | 4.9 | .
CCCS(=O)(=O)N1CCCC(C(=O)NCCN2CCOCC2)C1 (stereo unspecified) | 1.8 | .
Cc1cc(NC(=O)CSc2nnc(COc3cccc(C)c3C)n2Cc2ccco2)no1 | 0.9 | i
O=C(CSc1nnc2scc(-c3ccccc3)n12)c1ccc2c(c1)OCCO2 | -0.1 | .
S=c1[nH]nc(C23CC4CC(CC(C4)C2)C3)n1Cc1ccco1 | -0.2 | .
CCC(C(=O)NC(C)CCc1ccco1)n1nc(C)n2c(cc3occc32)c1=O (stereo unspecified) | -0.1 | i
O=S(=O)(NCCCN1CCN(c2ccccc2F)CC1)c1cccc2cccnc12 | 2.6 | .
COc1cccc(N2C(=O)CC(N3CCN(S(=O)(=O)c4ccccc4)CC3)C2=O)c1 (stereo unspecified) | -0.1 | .
CCOc1ccc(/C=c2\sc3nc(-c4ccco4)nn3c2=O)cc1OCC | 41.7* | .
CC1(C)CC(=O)C(/C=N/c2ncccc2C(=O)O)=C(O)C1 | -1.7 | .
O=C(NCC(=O)N1CCCC1C(=O)O)OC1CCCCC1 (stereo unspecified) | -1.9 | .
Cc1cccc(NC(=O)c2ccc(S(=O)(=O)N(C)C)cc2)n1 | -1.6 | i
Cc1[nH]c(=O)[nH]c(=O)c1S(=O)(=O)NCCOC12CC3CC(CC(C3)C1)C2 | -0.1 | .
COc1cc(OC)nc(NC(=O)NS(=O)(=O)c2ccc(OC(F)(F)F)cc2)n1 | -0.8 | .
O=C(NCC(c1cccnc1)N1CCOCC1)C1CCCCC1 (stereo unspecified) | -1.9 | .
Cc1cnc(NC(=O)CSc2nc3ccccc3c(=O)[nH]2)s1 | -0.3 | i
CC1Cc2ccccc2N1C(=O)CCNS(=O)(=O)c1ccc2c(c1)CCC(=O)N2 (stereo unspecified) | -1.1 | .
CCOC(=O)Cc1nnc(NC(=O)c2ccccc2OCC)s1 | -0.1 | i
Cn1c(=O)c2nc(Cl)n(Cc3ccc(Cl)cc3Cl)c2n(C)c1=O | 2.0 | i
CN(CCC#N)C(=O)COC(=O)c1ccc(Cl)c(S(N)(=O)=O)c1 | -2.1 | i
COc1ccc(Cl)cc1S(=O)(=O)n1cnc2ccccc21 | 1.0 | i
c1ccc2c(c1)ccc1nnc(-c3ccc4c(c3)OCO4)n12 | -4.0 | i

Part of the list above, reformatted:
Cc1cccc(NC(=O)c2ccc(S(=O)(=O)N(C)C)cc2)n1
  Proteasome disasm: -1.6
  VCAM-1 rise: i

Cc1[nH]c(=O)[nH]c(=O)c1S(=O)(=O)NCCOC12CC3CC(CC(C3)C1)C2
  Proteasome disasm: -0.1
  VCAM-1 rise: .

COc1cc(OC)nc(NC(=O)NS(=O)(=O)c2ccc(OC(F)(F)F)cc2)n1
  Proteasome disasm: -0.8
  VCAM-1 rise: .

O=C(NCC(c1cccnc1)N1CCOCC1)C1CCCCC1 (stereo unspecified)
  Proteasome disasm: -1.9
  VCAM-1 rise: .

(continued)
molecule | Proteasome disasm | VCAM-1 rise
Cn1cc(NC(=O)c2cc(NC(=O)c3cc(NC=O)cn3C)cn2C)cc1C(=O)NCCC(=N)N | 2.2 | i
COc1cc(C2c3c(n[nH]c3C)C(=O)N2c2ccc(C)cc2)ccc1O (stereo unspecified) | 1.1 | i
CC(=O)Nc1ccc(N2CCN(C(C)=O)CC2)cc1 | 1.8 | .
O=C(O)c1cc2nc(-c3ccc(F)cc3)cc(C(F)(F)F)n2n1 | -1.2 | i
Cc1cc(Nc2ccc(Br)cc2F)n2nc(C)nc2n1 | 0.0 | .
CCn1c(CSc2nc(C)cc(C)n2)nnc1SCC(=O)Nc1ccccc1 | 0.0 | i
Cc1c(C(=O)NCC2CCCO2)oc2ccc3c(c12)C(=O)CC(C)(C)O3 (stereo unspecified) | 0.6 | .
O=C(Cn1cccc1)Nc1ccc(F)cc1F | 1.2 | .
Cc1cc2c(cc(C(=O)OCC(=O)NCc3cccs3)n2C(C)C)o1 | 1.2 | i
CC(=O)c1cccc(NC(=O)c2cnn3ccccc23)c1 | 0.7 | .
CCn1cc(/C=C(/C#N)S(=O)(=O)c2ccccc2)cn1 | -2.6 | i
COCON1C(=O)CN(C(C)=O)C1c1ccc(Cl)cc1Cl (stereo unspecified) | 1.0 | .
COc1cccc(NC(=O)Cn2cc3c(n2)CCCCC3)c1 | -1.4 | .
CC(c1ccco1)N(C(=O)COc1ccc(Cl)cc1Cl)c1ccccn1 (stereo unspecified) | 1.5 | i
COc1ccc2[nH]c(C)c(C(=O)CN(C)C)c2c1 | 0.6 | .
Nc1nc(Cn2nnc(-c3ccccc3F)n2)nc(N2CCOCC2)n1 | 1.4 | .
O=C(CCCC(=O)N(CC(=O)NC1CCCCC1)Cc1ccc2c(c1)OCO2)Nc1ccccn1 | -0.8 | i
CCOC(=O)C1CCCN(C(=O)C2CCN(S(=O)(=O)CC)CC2)C1 (stereo unspecified) | -0.8 | .
CN(C)c1ccc(C2N(c3ccc(Cl)cc3)C(=O)C3CCCN32)cc1 (stereo unspecified) | -0.5 | .
Cc1ccc(C(C#N)N2CCOCC2)cc1 (stereo unspecified) | -0.2 | .
CC(C)C(=O)Nc1cccc(NC(=O)c2cccnc2)c1 | -3.6 | i
O=C(NCc1cccs1)c1cc2c(s1)CCCC2 | -0.6 | i
O=C(COC(=O)c1ccc(NS(=O)(=O)c2ccc3c(c2)OCCO3)cc1)NCC1CCCO1 (stereo unspecified) | 2.2 | i
COc1ccc(C2c3c(oc4ccccc4c3=O)C(=O)N2c2ccccn2)cc1 (stereo unspecified) | -1.5 | .
Cn1cc(CN2CCc3ccccc3C2)c2ccccc21 | 0.2 | i
O=C(c1ccc(NC2=NC3CS(=O)(=O)CC3S2)cc1)N1CCN(C(=O)c2ccco2)CC1 (stereo unspecified) | -0.1 | .
O=C(Nc1ccc(F)cc1F)NC1CC(=O)N(Cc2ccccc2)C1 (stereo unspecified) | -0.3 | i
CCOC(=O)N1CCC(NC(=O)CSCc2nc(-c3ccc(OC)c(OC)c3)oc2C)CC1 | -1.9 | .
CC1(C(=O)NC2CCCC2)CCC(=O)N1CCC1=CCCCC1 (stereo unspecified) | 2.3 | .
COc1ccc(S(=O)(=O)N2CCC(C(=O)c3ccc4c(c3)OCCO4)CC2)cc1 | 11.6 | i
CCCNC(=O)C(Cc1ccccc1)NS(=O)(=O)c1cccc2nsnc12 (stereo unspecified) | 0.3 | .
O=C1c2cccnc2C(Nc2ccc(S(=O)(=O)N3CCCCC3)cc2)N1Cc1ccccc1 (stereo unspecified) | 0.3 | .
CCNC(=O)CC1C(=O)N(c2ccccc2)C(=O)N1Cc1ccc(OC)cc1 (stereo unspecified) | 1.4 | i
O=C(O)c1ccc(COc2c(F)c(F)cc(F)c2F)cc1 | ? | i
O=C(CSc1ccc2nnc(-c3ccccc3)n2n1)NCc1ccco1 | -0.4 | .
N#Cc1c(NC(=O)CSc2nnnn2C2CCCC2)sc2c1CCCC2 | 0.0 | i
O=C(O)C1CC=CCC1C(=O)Nc1ccc(S(=O)(=O)N2CCCc3ccccc32)cc1 (stereo unspecified) | -1.0 | 27.3
CCCCc1noc2c1/C(=N\O)CC(c1ccccc1)C2 (stereo unspecified) | 1.1 | i
O=C(c1ccc(Cl)cc1)N1CCCCC(Sc2nnc(-c3ccc4c(c3)OCO4)o2)C1=O (stereo unspecified) | -1.3 | i
O=c1[nH]c2c(s1)C(c1ccco1)C1C3CCC(C3)C1S2 (stereo unspecified) | 2.0 | i
CSc1nc(N)nc(SCCS(=O)(=O)c2ccc(Cl)cc2)c1C#N | 1.4 | i
O=C1c2ccccc2C(O)N1CCN1CCOCC1 (stereo unspecified) | 0.7 | .
CCc1ccc(NC(=O)CSc2nc3ccccc3c(=O)n2CCN2CCOCC2)cc1 | -3.4 | .
COc1ccc(C2=NOC(C(=O)NCCN3CCOCC3)C2)cc1 (stereo unspecified) | -1.4 | .
Cn1c(C(=O)N2CCN(c3cccc(C(F)(F)F)c3)CC2)cc2sccc21 | 0.9 | .
COC(=O)c1ccc(CN(Cc2ccc(C(=O)OC)o2)C(C)(C)C)o1 | -1.1 | .
COc1ccc(NC(=O)C2CCN(S(=O)(=O)c3cccnc3)CC2)cc1Cl | 0.9 | .
O=C(OC1CCc2ccccc2C1=O)c1ccccc1O (stereo unspecified) | -2.6 | i
Cc1cc(Oc2ccc(=O)n(C)n2)nc(Oc2ccc(=O)n(C)n2)n1 | -0.2 | .
CCn1cc(S(=O)(=O)CC(=O)Nc2ccc(OC)cc2)c2ccccc21 | 0.0 | i
CS(=O)(=O)N1CCCC(C(=O)NCc2ccccc2Cl)C1 (stereo unspecified) | -0.6 | i
COC(=O)c1ccccc1NC(=O)c1ccc(COc2ccccc2)o1 | 1.4 | i
CCOC(=O)C1CCCCN1C(=O)CCc1c(C)nc2ncnn2c1C (stereo unspecified) | -0.9 | .
COc1ccc(-c2cc(C(F)(F)F)nc(N3CCN(c4ccc(F)cc4)CC3)n2)cc1OC | 0.1 | i
CNC(=O)c1ccccc1NC(=O)c1cccc(S(=O)(=O)N2CCC(C)CC2)c1 | 0.0 | .
CC(C)(C)C(=O)Cn1c[n+](N)cn1 | -0.1 | i
CCCC(=O)Nc1nnc(Sc2ccc(N(C)C)cc2)s1 | 0.2 | i
O=c1ccc2cc3c([nH]c4ccc(Br)cc43)oc-2c1O | -1.3 | i
CCOc1ccc(-c2nc(C#N)c(NCc3ccc4c(c3)OCO4)o2)cc1 | 0.6 | i
O=C(Nc1ccc(S(=O)(=O)NCCc2ccccc2)cc1)c1ccc(Br)o1 | -3.0 | i

(listing goes on)
molecule | Proteasome disasm | VCAM-1 rise
O=C(C1CC1)N1CCN=C1SCc1ccccc1Cl | -2.1 | .
O=C(CSc1nc2ccccc2nc1SCC(=O)N1CCOCC1)N1CCOCC1 | -0.4 | i
O=C1NCCNC1(c1c[nH]c2ccccc12)C(F)(F)F (stereo unspecified) | 1.0 | .
COc1ccc(C2C(C(=O)c3sc(C)nc3C)=C(O)C(=O)N2CCN(C)C)cc1 (stereo unspecified) | 0.0 | i
CC(Sc1sc(=S)sc1SC(C)C(=O)O)C(=O)O (stereo unspecified) | -0.5 | .
CCN(CC)CCCN1C(=O)C(=O)/C(=C(/O)c2ccc(C)cc2)C1c1ccccn1 (stereo unspecified) | -3.9 | i
[O-][n+]1onc2c1CCc1nnc(-c3ccccc3)cc1-2 | 0.5 | i
COc1cccc(/C=c2\sc3nc(-c4cccs4)nn3c2=O)c1OC | -1.8 | .
COC(=O)c1cc(S(=O)(=O)N2CCOCC2)c(N2CCOCC2)cc1N1CCOCC1 | -4.1 | i
Nc1c(C(=O)NCCN2CCOCC2)c2nc3ccccc3nc2n1-c1ccc2c(c1)OCO2 | -0.7 | i
O=C(Cn1cnc2c(nnn2Cc2ccc(Cl)cc2)c1=O)NCc1ccco1 | 0.4 | .
CCOC(=O)N1CCN(CC(=O)c2ccc3c(c2)CCN3)CC1 | -0.2 | .
CCCCOn1c(C)c(C(=O)OCC)c2c3no[n+]([O-])c3ccc21 | -0.5 | .
O=C(Nc1nc2c(ccc3ccccc32)s1)c1ccco1 | -1.0 | .
COc1ccc(-c2nnc3ccc(SCC(=O)NCC4CCCO4)nn23)cc1 (stereo unspecified) | -3.3 | .
COc1cc(C2C(C(=O)Nc3ccc(F)cc3)=C(C)Nc3nc(CCCO)nn32)cc(OC)c1OC (stereo unspecified) | -1.2 | .
COc1ccccc1S(=O)(=O)n1cc(Cc2ccccc2)c(N)n1 | 1.7 | i
CCOC(=O)c1ccc(CNC(=O)CSc2nnnn2-c2ccc(Cl)cc2)o1 | 0.5 | .
CCOC(=O)N1CCC(NC(=O)c2ccc3c(c2)N(C)CCS3)CC1 | 0.4 | i
O=C(c1ccc(CS(=O)(=O)c2ccc(Br)cc2)o1)N1CCCCCC1 | 1.0 | .
Cc1ccc(-c2ccc(=O)[nH]n2)cc1 | 1.4 | .
Cc1ccc2c(c1)N(C(C)C(=O)NCCc1ccccc1)C(=O)CO2 (stereo unspecified) | 0.1 | .
CCc1cc(=O)oc2cc(OC(C)=O)cc(OC(C)=O)c12 | -0.1 | i
O=C(c1ccccc1Cl)N1CCc2ccccc2C1 | 2.9 | i
COc1ccc(-c2c(C)oc3c(CN4CCCCC4C)c(O)ccc3c2=O)cc1OC (stereo unspecified) | 0.7 | .
COc1ccc(N(CC(=O)Nc2cccc(C)c2C)S(=O)(=O)c2c(C)n[nH]c2C)cc1 | -1.7 | .
CCN(CCCNC(=O)COc1cc(=O)n(CC)c2ccccc12)c1ccccc1 | 3.2 | i
CCCCCSc1nnc(-c2cc(Br)ccc2N)c(=O)[nH]1 | -0.4 | .
O=C(CN1C(=O)c2ccccc2S1(=O)=O)NCc1ccccc1Cl | -0.4 | i
O=C(COc1nnc2ccccn12)N1CCN(S(=O)(=O)c2ccccc2)CC1 | -0.3 | i

Screening data from PubChem BioAssay.
